# HSD17B inh: qHTS Assay for Inhibitors of HSD17B4, hydroxysteroid (17-beta) dehydrogenase 4; AID 893, 2007; 3-hydroxyacyl-CoA dehydrogenase type-2 (Homo sapiens), Q99714; recombinant HSD17B10, NADH fluorescence kinetic; many of its hits are not listed in these tables; hit rate 7.6% among 75,000; Potency, µM (highest dose often 57.1 µM), for the others: at the highest dose activity change, negative = inhibition, hits mostly inhibitors; active = well fitted inhibition curve with a large enough effect; inconclusive = small, poorly fitted or top-dose-only effect; inactive = no such curve, though single readings can be large or run the other way;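 also: the protocol describes HADH2 (HSD17B10) and not the HSD17B4 of the title; nearly all actives have a fitted effect of over 70% in size; most hits overshoot -100% by far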
#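 Activity followed as NADH fluorescence increase (ex 360, em 450 nm) every 30 seconds for 4 min, using final 90 uM beta-hydroxybutyryl CoA and 1 mM NAD+. Recombinant His-tagged enzyme, 20 nM, pH 9.0 Tris buffer, 15 min compound preincubation.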
# Numbers without * were called inactive; ? = inconclusive; & = joins results of further samples; [ ] = remark or other dose. % is scaled to controls: 0 for no effect and ±100 for the full control effect; potency is read from the fitted curve at half-maximal effect. An excerpt. The share of hits here may be higher or lower than overall.
structure,HSD17B inh
O=C1CC(c2ccco2)Cc2nc(Nc3ccc(F)cc3)ncc21 (stereo unspecified),-26%
COc1ccc(OC)c(N(CC(=O)N2CCN(c3cc(Cl)ccc3C)CC2)S(C)(=O)=O)c1,-6%
O=c1cc(NCc2ccc3c(c2)OCO3)[nH]c(=O)n1-c1ccc(Cl)cc1,14%
COc1cc2cc(CN(C(=O)NC3CCCCC3)C3CCCC3)c(=O)[nH]c2cc1OC,25µM*
O=C(NCCCN1CCCCC1)C1(S(=O)(=O)c2ccc(Cl)cc2)CC1,9%
Cn1c(-c2ccc3c(c2)OCO3)cc(=O)c2ccccc21,13µM*
COCCNC(=O)C1CC(=O)N(C2CCCCC2)C1 (stereo unspecified),6%
COc1ccccc1N(CC(=O)Nc1ccccc1C)S(C)(=O)=O,3%
CN1C(=O)c2ccccc2C(C(=O)O)C1c1cccc(F)c1 (stereo unspecified),11%
COc1ccc(-c2nc(-c3cccs3)c(-c3cccs3)[nH]2)cc1O,32µM*
CC(C)NC(=O)Cn1c(SCC(=O)N2CCc3ccccc3C2)nc2ccccc21,4%
Cc1cc(NCc2ccc3c(c2)OCO3)n2nc(C)nc2n1,1%
O=C(O)c1cccc(CN2C(=O)SC(Nc3ccccc3)C2=O)c1 (stereo unspecified),12%
C#CCn1cc[n+](CC(=O)N(C)C)c1,4%
c1c2c(cc3sc(N4CCOCC4)nc13)OCO2,?
CCOc1ccc(C(=O)N2CCCCCC2)cc1,7%
CCCOc1ccc(C(=O)Nn2c(C)nc3ccccc3c2=O)cc1,-1%
COc1ccc(N2C(=O)C3CCCN3C2c2cccc(Br)c2)cc1 (stereo unspecified),6%
COc1ccc2[nH]c(C)c(CCN3C(=O)OC(C)(C)C3(C)O)c2c1 (stereo unspecified),-29%
Cc1cc(C)n(C(=O)c2cc3ccccc3c(=O)o2)n1,13%
COC(=O)c1cccc(-n2nnnc2SCC(=O)Nc2nc3c(s2)CCCC3)c1,-13%
CC(NC(=O)Nc1ccccc1)C(c1cccs1)N1CCN(C)CC1 (stereo unspecified),-16%
Cn1c(NCc2ccco2)nc2ccccc21,-20%
CC(C)C(c1nnnn1C1CCCC1)N1CCCc2ccccc21 (stereo unspecified),-4%
CC(C)(C)c1cc(Br)ccc1OCC(=O)Nc1ncn[nH]1,-5%
CCC1Oc2ccc(C)cc2N(CC(=O)N(Cc2ccc3c(c2)OCO3)CC2CCCO2)C1=O (stereo unspecified),-1%
O=C(c1ccc(CS(=O)(=O)c2ccc(Br)cc2)o1)N1CCN(c2ncccn2)CC1,-14%
CCOC(=O)N1CCN(c2c(Nc3ccc4c(c3)OCCO4)c(=O)c2=O)CC1,-10%
Cc1ccc(N=Cc2ccc[nH]2)c(O)c1,1%
COc1ccc(-c2noc(CN3CCC(Cc4ccccc4)CC3)n2)cc1,-2%
COc1ccc(N2CCCn3c2nc2c3c(=O)n(Cc3ccccc3F)c(=O)n2C)cc1,1%
COc1ccc(C)cc1S(=O)(=O)Nc1ccc(F)cc1,8%
COc1cccc(C(c2sc3ncnn3c2O)N2CCN(C(=O)c3ccco3)CC2)c1 (stereo unspecified),32µM*
CC(C)C(c1nnnn1C1CCCCC1)N1CCc2ccccc2C1 (stereo unspecified),-2%
CCOC(=O)c1nnn(-c2nonc2N)c1COc1cc(C)c(Cl)c(C)c1,-4%
COc1cc2nc(NCCN3CCOCC3)n3nc(-c4ccccc4)nc3c2cc1OC,-10%
CC1CCCCC1NC(=O)c1cncc(Br)c1 (stereo unspecified),5%
CCc1ccccc1NC(=O)CSc1nc2n[nH]c(C)c2c(=N)n1-c1ccc(OC)cc1,14%
O=C(NCC1CCCO1)c1cc2c(s1)CS(=O)(=O)C2 (stereo unspecified),-3%
O=C(Oc1ccccc1)N1CCC[C@@]2(CCN(c3ncccn3)C2)C1,-16%
CSc1nc(SC)c2c3c(oc2n1)COC(C)(C)C3,-18%
Cn1c(Cn2nnc3ccccc32)nnc1SCC(=O)N1c2ccccc2Sc2ccccc21,2%
Cc1cnc(NC(=O)COc2ccccc2Cl)s1,-7%
O=C(O)C1CC=CCC1C(=O)Nc1ccc(F)c(F)c1 (stereo unspecified),3%
c1ccc(Cn2c(SCc3nc4ccccc4s3)nnc2-c2ccco2)cc1,?
CC(C)Cc1nnc(NC(=O)CCC(=O)N2CCOCC2)s1,0%
Cc1ccc(-n2c(C)cc3c2CCCC3=O)cc1,-10%
CCSc1nnc([C@H](C)NC(=O)OC(C)(C)C)o1,7%
O=C(c1ccc2snnc2c1)N1CCCC1,-2%
CC(C)Cn1c(CNC(=O)c2ccccc2)nc2ccccc21,-1%
Cc1oc(-c2ccc(Cl)cc2)nc1CN1CCC(C(=O)NCCCN2CCOCC2)CC1,1%
CC(=O)C1C(c2ccccc2OC(F)F)NC(=O)NC1(O)C(F)(F)F (stereo unspecified),2%
COC(=O)COc1ccc(-c2nn(C)c(=O)c3ccccc23)cc1,6%
COC(=O)Cc1cc(=O)n(-c2nc3ccccc3[nH]2)[nH]1,-21%
COc1ccccc1N1CCN(CC(=O)c2c(C)n(C)c3ccccc23)CC1,4%
COc1ccc(OC)c(NC(=O)CN(c2ccc(OC)c(Cl)c2)S(C)(=O)=O)c1,2%
CCOc1ccccc1NC(=O)c1ccc(F)c(S(=O)(=O)N2CCC3(CC2)OCCO3)c1,68%[activator]
CCCc1cc(=O)n2[nH]c(Cc3ccccc3)nc2n1,1%
COc1ccc(N(CC(=O)Nc2ccc3c(c2)OCCO3)S(=O)(=O)c2c(C)noc2C)cc1,12%
CSCCC(NS(=O)(=O)c1ccc2c(c1)OCCO2)C(=O)NCCc1ccccn1 (stereo unspecified),15%

# Next section:
structure,HSD17B inh
O=C(/C=N/O)NCCCn1ccnc1,16%
O=C(NCc1ccccc1)c1ccc(CN2CCOCC2)cc1,4%
COc1ccc2c(Cl)cc(NC(=S)Nc3ccccc3)nc2c1,4%[11.4 µM]
O=CCCCC=O,-1%
COC(=O)c1ccc2c(=O)n(Cc3ccco3)c(SCC(=O)Nc3ccccc3Cl)nc2c1,3%
Fc1ccc(C(c2nnnn2Cc2cccs2)N2CCN(C3CCCCC3)CC2)cc1 (stereo unspecified),-1%
Cc1ccsc1C(C(=O)NC1CCCCC1)N(C(=O)Cc1cccs1)C1CC1 (stereo unspecified),4%
CC1CCN(CC[S-])CC1.O.O.[Cl][Pt],-7%[11.4 µM]
CCOc1ccccc1NC(=O)CN(C)S(=O)(=O)c1cccc2nsnc12,-4%
CCOc1cc(C2C(C(=O)N3CCCCC3)=C(C)NC3=C2C(=O)CCC3)cc(Br)c1O (stereo unspecified),5%
CC(C)C1N=C2c3ccccc3N=C(SCc3cc(=O)n4ccccc4n3)N2C1=O (stereo unspecified),3%
Cc1cc(C(F)(F)F)nn1-c1nc(-c2ccco2)cc(C(F)(F)F)n1,32µM*
O=S(=O)(NCc1cn2ccsc2n1)c1ccc(Oc2ccccc2)cc1,2%
Cc1nc(CN2CCN(C(=O)c3ccc(Br)cc3)CC2)cs1,10%
OCCSc1nc(-c2cccnc2)nc2ccccc12,7%
COc1ccc(CCN(C)CCCOc2ccc(S(=O)(=O)c3[nH]c4ccccc4c3C(C)C)cc2)cc1OC,20%
Cc1ccc2c(c1)-c1c(cnn1CC(=O)O)CO2,9%
CC(=O)N1C2(C=CC1(C)C(=O)NCc1ccccn1)CCCCC2 (stereo unspecified),-26%
Cc1c(C(=O)Nc2c(C)n(C)n(-c3ccccc3)c2=O)oc2ccccc12,0%
O=C(COc1ccc(Cl)cc1)NC1CCSC1=O (stereo unspecified),-9%

# An excerpt from above in order of SMILES length, highest first:
structure,HSD17B inh
CCOc1ccccc1NC(=O)CN(C)S(=O)(=O)c1cccc2nsnc12,-4%
O=C(/C=N/O)NCCCn1ccnc1,16%
O=CCCCC=O,-1%

# (listing goes on)
structure,HSD17B inh
COCCNC(=O)CS(=O)Cc1nc(-c2ccc(OC)cc2)oc1C (stereo unspecified),?
Cc1ccc2c(c1)c1c(n2CC(O)CN2C(=O)CNC2=O)C(=O)CCC1 (stereo unspecified),32µM*
O=C1CC(C(=O)Nc2ccccc2)N=C(N2CCOCC2)N1 (stereo unspecified),4%
CC(C)C[C@H](N)c1nnc(S(=O)(=O)Cc2ccc(F)cc2)o1,-8%
Cc1cc(N2CCN(Cc3ccc4c(c3)OCO4)CC2)n2ncnc2n1,-9%
CCOCCCNC(=O)c1c[nH]c2cc(C)ccc2c1=O,-3%
COC(=O)Cn1ncc2c(C)n(Cc3ccccc3)c(C)c2c1=O,-3%
CC(C)OCCCNC(=O)c1cc2c(s1)CS(=O)(=O)C2,2%
COc1ccc(-n2ncc3c(NCCCN4CCOCC4)ncnc32)cc1,32µM*
O=C(O)c1ccc([N+]2=Cn3c(nc4ccccc43)C2)cc1,3%[11.4 µM]
COc1cc(OC)cc(-c2nnc(SCC(=O)N3CCCC3)o2)c1,2%
NC(=O)c1ccsc1NC(=O)COC(=O)C1CCCN1C(=O)c1cccs1 (stereo unspecified),0%
CC(Oc1ccc(Cl)cc1Cl)C(=O)NC1CCSC1=O (stereo unspecified),4%
c1ccc(Cn2c(CNc3nc4ccccc4n3CCN3CCOCC3)nc3ccccc32)cc1,2%
CC1(C)C2CCC1(C)C(NC1=NCCC1)C2 (stereo unspecified),12%
O=C(NCC1CCCO1)c1ccc(N2CCCCC2)nc1 (stereo unspecified),-6%
O=C(Nc1ccc(N2CCOCC2)cc1)C1CCCN(S(=O)(=O)c2cccc(C(F)(F)F)c2)C1 (stereo unspecified),8%
Cc1cccc(-c2noc(CN(C)S(=O)(=O)c3cc(Cl)ccc3Cl)n2)c1,-1%
CCn1c(COc2cccc(OC)c2)nnc1SCC(=O)Nc1ccccc1C(=O)OC,2%
Cc1cccc(-n2ncc3c(NCc4ccccn4)ncnc32)c1,20µM*

# Compounds shown so far containing a COOH group (five):
structure,HSD17B inh
CN1C(=O)c2ccccc2C(C(=O)O)C1c1cccc(F)c1 (stereo unspecified),11%
O=C(O)c1cccc(CN2C(=O)SC(Nc3ccccc3)C2=O)c1 (stereo unspecified),12%
O=C(O)C1CC=CCC1C(=O)Nc1ccc(F)c(F)c1 (stereo unspecified),3%
Cc1ccc2c(c1)-c1c(cnn1CC(=O)O)CO2,9%
O=C(O)c1ccc([N+]2=Cn3c(nc4ccccc43)C2)cc1,3%[11.4 µM]

# Next section:
structure,HSD17B inh
O=C(Nc1cccs1)NC1CCCC1,16µM*
Cc1ccccc1NC(=O)Cn1cnc2c(oc3ccccc32)c1=O,7%
COC(=O)c1ccccc1NC(=O)Cn1c(-c2nonc2N)nc2ccccc21,-4%
C[C@@H]1CCN=C(N)S1,5%&-1%
Cc1ccc(-c2nc(C#N)c(NCCc3ccccn3)o2)cc1,?
Cn1c(SCC(=O)N2CCCc3ccccc32)nnc1-c1ccco1,-2%
CC(C)n1c(NCc2nc3ccccc3n2C)nc2ccccc21,-4%
NS(=O)(=O)c1ccc(CCNC(=O)CNC(=O)C2CCCCC2)cc1,4%
CC(CN(C)C)NC(=O)c1ccc(-n2c(=O)c(=O)[nH]c3ccccc32)cc1 (stereo unspecified),-2%
Cc1ccccc1CNS(=O)(=O)c1ccc2c(c1)OCCO2,-2%
Cc1cc(NC(=O)CSc2nnc(-c3ccco3)n2CC2CCCO2)no1 (stereo unspecified),9%
Cn1c(N2CCOCC2)nc(-c2ccccc2)c1-c1ccccc1,32µM*
O=C(Cn1nc(Cl)nc1Cl)c1ccc2c(c1)OCCO2,1%
O=C(NCc1nnc(SCC(=O)N2CCC(Cc3ccccc3)CC2)o1)c1ccccc1F,5%
Cc1cc(OCC(O)CN2CCN(C)CC2)ccc1C(C)C (stereo unspecified),5%
CCOC(=O)CNc1ccc2c(c1)OCO2,-9%
CCCN1C(=O)c2cc(C(=O)Nc3ccccc3CC)ccc2C1O (stereo unspecified),7%
COC(=O)c1ccccc1NC(=O)Cn1cnc2c(cnn2-c2ccccc2)c1=O,-9%
Cc1ccc(-c2nc(C3CCN(S(=O)(=O)c4ccc(C(F)(F)F)cc4)CC3)no2)cc1,5%
CC(=O)N1CCN(c2ccc(Oc3nc(-c4ccccc4)nc4ccccc34)cc2)CC1,-4%
Cc1ccc(NS(=O)(=O)c2ccc(C)c(C(=O)N3CCN(C)CC3)c2)cc1,-4%
CCOC(=O)CC(NS(=O)(=O)c1ccc(NC(C)=O)cc1)c1ccc(OCC)cc1 (stereo unspecified),4%

# Individual results from the results shown:
# Under HSD17B inh, `COC(=O)c1ccccc1NC(=O)Cn1cnc2c(cnn2-c2ccccc2)c1=O` is listed with -9%
# Under HSD17B inh, `CCOC(=O)CC(NS(=O)(=O)c1ccc(NC(C)=O)cc1)c1ccc(OCC)cc1` (stereo unspecified) is listed with 4%
# Under HSD17B inh, `COC(=O)c1ccccc1NC(=O)Cn1c(-c2nonc2N)nc2ccccc21` is listed with -4%
# Under HSD17B inh, `Cc1ccc(-c2nc(C3CCN(S(=O)(=O)c4ccc(C(F)(F)F)cc4)CC3)no2)cc1` is listed with 5%
# Under HSD17B inh, `CCOC(=O)CNc1ccc2c(c1)OCO2` is listed with -9%
# Under HSD17B inh, `O=C(Cn1nc(Cl)nc1Cl)c1ccc2c(c1)OCCO2` is listed with 1%
# Under HSD17B inh, `NS(=O)(=O)c1ccc(CCNC(=O)CNC(=O)C2CCCCC2)cc1` is listed with 4%
